HPGD block: qHTS Assay for Inhibitors of HPGD (15-Hydroxyprostaglandin Dehydrogenase) | AID 894, 2007 | purified HPGD, NADH fluorescence kinetic, PGE2 substrate | Potency, µM, inactives show top-dose activity change, negative = inhibition, most hits filed as inhibitors | 150,000 compounds, 4.3% hits | 15-hydroxyprostaglandin dehydrogenase [NAD(+)] (Homo sapiens), P15428; active = well fitted inhibition curve with a large enough effect (not every such curve was filed as active); inconclusive = small, poorly fitted or top-dose-only effect, or another doubt; inactive = no such curve, though single readings can be large or run the other way;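 also: top concentration of the series not given in the record; plate controls included wells without enzyme; inactives centre near -10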
Target sequence (P15428 whole entry, looked up): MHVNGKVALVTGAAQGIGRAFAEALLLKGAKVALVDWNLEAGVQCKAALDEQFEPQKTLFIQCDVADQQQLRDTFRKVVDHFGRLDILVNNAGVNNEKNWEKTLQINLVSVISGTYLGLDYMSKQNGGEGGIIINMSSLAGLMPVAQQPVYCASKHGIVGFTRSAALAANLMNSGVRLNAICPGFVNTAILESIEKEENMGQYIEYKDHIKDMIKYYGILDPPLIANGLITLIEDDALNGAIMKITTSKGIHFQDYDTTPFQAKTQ
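NADH formation kinetics: reaction with 30 uM PGE2 and 1 mM NAD+ (final), 20 nM enzyme, Tris-HCl pH 8 with Tween 20, after 15 min compound preincubation at room temperature. Fluorescence change, last versus first of five reads.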
Starred values were filed as active, the others as inactive; ? = inconclusive; & = joins results of further samples; [ ] = remark or other dose. % is scaled to controls: 0 for no effect and ±100 for the full control effect; potency is read from the fitted curve at half-maximal effect.

canonical_smiles | HPGD block
Cc1ccc(N(CC(N)=O)C2SC(=O)NC2=O)cc1 (stereo unspecified) | -15%
Cc1cccc(OCC(=O)N/N=C/c2cn[nH]c2-c2ccc(Cl)c(Cl)c2)c1 | -17%
c1ccc(CSc2nnc3c4ccccc4c4ccccc4c3n2)cc1 | 0%
CCOC(=O)C(NCCCO)c1ccccc1 (stereo unspecified) | 3%
Cc1ccc(-c2nnc(-c3ccccc3)c(N3CCOCC3)n2)cc1 | -15%
COc1ccc(CO/N=C/c2c(C)[nH]c(=O)[nH]c2=O)cc1 | -7%
O=c1c2ccccc2nc2n1C(CSCc1cccc(C(F)(F)F)c1)CS2 (stereo unspecified) | -20%
COc1cccc(CN(Cc2ccco2)C(c2ccc(F)cc2)c2nnnn2C(C)(C)C)c1 (stereo unspecified) | -21%
CCOC(=O)C1CCCN(Cc2c(F)cccc2Cl)C1 (stereo unspecified) | 4%
CCOc1ccccc1N(CC(=O)N/N=C/c1cc(Br)ccc1OC)S(C)(=O)=O | -5%
O=C(Cn1nnc(-c2ccc(Cl)cc2)n1)NCC1CCCCC1 | -9%
CCOC(=O)C(CC)n1nc(C)n2c(cc3sccc32)c1=O (stereo unspecified) | -12%
COc1ccc(-c2nc(N)n(C(C)=O)n2)cc1 | -4%
Cc1ccc(N2C(=O)[C@@H]3Cc4ccccc4CN3C2=O)cc1 | -11%
CC(C)c1cccc2nc3c(c([Si](C)(C)C(C)(C)C)c12)Cn1c-3cccc1=O | ?
COc1ccc2nc(SCc3ccccc3C)nc(C)c2c1 | ?
FC(F)(F)c1cccc(N2Cc3ccccc3C2)c1 | -16%
Cc1cc(-c2csc(N)n2)c(C)n1-c1ccc(Cl)c(Cl)c1 | -9%
CCNC(=O)/C(C#N)=C/c1c(N(Cc2ccccc2)Cc2ccccc2)nc2ccccn2c1=O | -8%
Cc1nc2ccccc2c(=O)n1/N=C/c1ccncc1 | -4%
Cc1ccc(C(=O)Nc2ccccc2N2CCN(C(=O)C(C)C)CC2)cc1 | -5%
C[n+]1ccccc1/C=N/O | -13%&0%&-11%
C=C(C(=O)c1ccccc1)C(C)CC(=O)c1ccccc1 (stereo unspecified) | 28µM*
O=C(CSCc1ccc(Cl)cc1)Nc1cccc(C(=O)Nc2ccccc2C(=O)O)c1 | -19%
O=C1Cc2ccccc2Sc2ccc(O)cc21 | -27%
CC(C)C(NC(=O)c1ccccc1Cl)C(=O)OCc1nc2scc(-c3ccccc3Cl)c2c(=O)[nH]1 (stereo unspecified) | -2%
CCOc1ccc(-n2nnc3c(=O)n(CC(=O)c4ccccc4)cnc32)cc1 | -14%
COc1cc2c(cc1OC)CN(C(=O)CSc1nc(N)c(C#N)cc1C#N)CC2 | -20%
Cc1ccc(CNC(=O)CCOc2ccc(C(C)(C)C)cc2)cc1 | -5%
CC1=[N+]([O-])C(N2CCOCC2)C(O)(c2ccccc2)C1 (stereo unspecified) | 0%

Of the compounds above, two contain a thiophene ring, fused or not:
canonical_smiles | HPGD block
CCOC(=O)C(CC)n1nc(C)n2c(cc3sccc32)c1=O (stereo unspecified) | -12%
CC(C)C(NC(=O)c1ccccc1Cl)C(=O)OCc1nc2scc(-c3ccccc3Cl)c2c(=O)[nH]1 (stereo unspecified) | -2%

Continued:
canonical_smiles | HPGD block
CCc1c(C)nc(N)n2c(SCC(=O)N3CCN(c4ccccc4OC)CC3)nnc12 | -11%
N#Cc1ccc(-c2ccc(F)cc2)nc1Oc1ccc(Cl)c(Cl)c1 | ?
CCCCNS(=O)(=O)c1ccc(S(=O)(=O)n2cnc3ccccc32)cc1 | 2%
CC(C)NS(=O)(=O)c1ccc(OCC(=O)Nc2ccc3c(c2)OCCO3)cc1 | 0%
COc1cc(/C=C/C(=O)NC(C)CCc2ccccc2)cc(OC)c1OC (stereo unspecified) | ?
O=[N+]([O-])C1=CC=C2C(=NC3(CCCCC3)N2O)C1=NCCO | -11%
COc1ccccc1OCC(=O)N(Cc1nc(-c2ccc(Cl)cc2)no1)C(C)C | -4%
COC(=O)C(Cc1cnc[nH]1)NC(=O)C1CCC(=O)N1 (stereo unspecified) | -11%
O=C(O)CN1C(=O)CSc2ccccc21 | -3%
CCOc1nc(-c2ccc(C)cc2)ccc1-c1noc(COC)n1 | ?
Cc1ccc(NS(=O)(=O)c2c(C)[nH]c(=O)[nH]c2=O)cc1C | -7%
Cc1ccc(-c2cnc(N)n2C)cc1C | -9%
Cc1onc(-c2ccccc2)c1C(=O)N1CCN(C/C=C/c2ccccc2)CC1 | -5%
CCOC(=O)c1oc2ccccc2c1NC(=O)c1cccc(OC)c1OC | ?
O=S(=O)(c1ccc(OCC(O)CN2CCc3ccccc3C2)cc1)N1CCOCC1 (stereo unspecified) | -2%
O=C(/C=C/c1ccc(Cl)cc1Cl)Nc1ccncc1 | -13%
CCc1ccc2[nH]cc(C(=O)OCCOC)c(=O)c2c1 | -19%
CC(C)Cn1c(N)c(S(=O)(=O)c2cccs2)c2nc3ccccc3nc21 | ?
Cc1ccc(C)c(C(C)NC(=O)C2C3CCC(O3)C2C(=O)O)c1 (stereo unspecified) | -1%
COc1ccc(-c2noc(CCCC(=O)NCCc3ccccc3)n2)cc1OC | ?
C=C(C)Cn1c(CCNC(=O)CC)nc2ccccc21 | 0%
CC(=O)Nc1ccc(N=Nc2ccccc2)cc1 | -11%
O=c1cc(O)cc(/C=C/c2ccc(O)c(O)c2)o1 | ?
COCCSc1ccccc1C(=O)NCc1ccc2c(c1)OCO2 | ?
COc1ccc(N(CC(=O)NC2CCCC2)S(=O)(=O)c2c(C)[nH]c(=O)[nH]c2=O)cc1 | -14%
O=C(c1ccc(COc2ccc(Br)cc2)o1)N1N=C(C(F)F)CC1(O)C(F)F (stereo unspecified) | -10%
CC1=C(C)/C(=N\OC(=O)/C=C/c2ccccc2)C=CC1=O | -5%
Cc1sc(NC(=O)CSc2nnc(COc3ccccc3)n2C)c(C#N)c1C | -9%
COCCN(C(=S)Nc1ccc(OC)cc1)C(C)c1cccs1 (stereo unspecified) | -9%
COC(=O)c1ccc(NC(=O)c2ccccc2N(C)S(=O)(=O)c2ccccc2)cc1 | -12%

Following part
compound,HPGD block
O=C(NCC1CCCO1)C(c1cccnc1)N(C(=O)Cc1cccs1)c1cccnc1 (stereo unspecified),1%
COc1cc(-c2nc3cnccn3c2Nc2ccccc2)ccc1O,-21%
CCOC(=O)c1cnc2ccccc2c1NCCc1ccc(OC)c(OC)c1,-13%
NC(=O)c1ccc(N2CCCCC2)c(N2C(=O)CCC2=O)c1,-6%
COc1ccc2oc(C(F)(F)C(F)F)cc(=O)c2c1,?
Cc1cc(NC(=O)COC(=O)C2CCN(S(=O)(=O)c3cccc(Cl)c3Cl)CC2)no1,-5%
Cc1ccc(NC(=O)C2(NC(=O)c3ccccn3)CCCCC2)cc1Br,-16%
CCOc1ccc(NCC(=O)Nc2ccc(C)cc2C)cc1,-3%
Cc1ccc(CC(=O)N2CCN(c3cccc(C(F)(F)F)c3)CC2)cc1,-3%
CCN(CC(=O)NC(C)C)C(=O)CCNC(=O)c1ccc(Cl)cc1,-8%
O=C(Nc1ccccc1O)c1ccc(Cl)cc1,-19%
Cc1nc2sc(C(c3cccs3)N3CCN(c4cccc(Cl)c4)CC3)c(O)n2n1 (stereo unspecified),-2%
FCCCOc1ccc(-c2nccc(-c3ccc(Cl)cc3)n2)cc1,-24%
CCOC(=O)CSc1nc(C)cc(C)c1C#N,-9%
CCOC(=O)Cc1csc(NC(=O)Nc2ccccc2)n1,-9%
COc1ccc(S(=O)(=O)N(CCCN2CCCC2=O)Cc2cc3c(C)ccc(C)c3[nH]c2=O)cc1,86%[activator]
Cc1ccc(S(=O)(=O)N(CC(=O)NCc2ccco2)Cc2ccccc2F)cc1,-4%
S=C(Nc1ccccc1Oc1ccccc1)Nc1cccc(Cl)c1Cl,-25%
NS(=O)(=O)c1ccc(CCNC(=O)NC2(C(F)(F)F)Oc3ccccc3O2)cc1,-12%
O=C(/C=C/c1ccccc1)NC(=S)Nc1ccc(N2CCOCC2)cc1,-2%
CCN1C(=O)/C(=C2/SC(C)=C(C)N2CC)SC1=S,-10%
CCN(CC)S(=O)(=O)c1ccc(NC(=O)C(OC)c2ccccc2)cc1 (stereo unspecified),-1%
CN(C(=O)Nc1ccc(S(=O)(=O)N(C)C)cc1)C1CCCCC1,-10%
Cc1cccc(NC(=O)c2ccccc2NC(=O)C(C)(C)C)n1,-6%
O=C(Cc1ccccc1)Nc1ccccc1N1CCOCC1,-26%
Cc1ccc(-c2nn(-c3ccccc3)cc2CN(Cc2ccccc2)C(=O)CCC(=O)O)o1,?
O=C(Cn1c(=O)n(CC2CCCO2)c(=O)c2ccccc21)c1ccccc1 (stereo unspecified),-4%
NC(=NCCc1c[nH]c2ccccc12)NS(=O)(=O)c1ccc2ccccc2c1,-25%
O=[N+]([O-])c1ccccc1-c1cc(-c2cc(Cl)ccc2O)n[nH]1,11µM*
NS(=O)(=O)c1ccc(NC(=O)Nc2cccc3ccccc23)cc1,-1%
COCCCn1c2nc3ccccc3nc2c2c(=O)n(Cc3ccc(Cl)cc3)cnc21,-27%
Cc1c(NC(=O)CSc2nc(-c3ccco3)cc(C(F)(F)F)n2)c(=O)n(-c2ccccc2)n1C,-5%
CC(=O)N1CCN(CC(O)COc2ccc(OCc3ccccc3)cc2)CC1 (stereo unspecified),-20%
FC(F)(F)C1=CC(c2ccc(Cl)cc2)=NCCN1,-21%
COC(=O)c1ccc(CSc2nnc(-c3ccncc3)o2)o1,-4%
Cc1ccc2nc(C3CCN(CC(=O)Nc4ccc5c(c4)OCCO5)CC3)[nH]c2c1,-5%
Cc1c(N2CCCC2)cc2c(c1NC(=O)c1ccccc1Cl)C(C)(C)CC2(C)C,-6%
COc1ccc(-c2csc3ncnc(Oc4cccc5ccc(C)nc45)c23)cc1,-8%
Cc1nc(SCC(=O)c2c[nH]c3ccccc23)n[nH]1,1%
COc1ccc(/C=N/Nc2c(Cl)cc(Cl)cc2Cl)cc1CN1CCOCC1,-6%
COc1ccccc1C(=O)N1CCN=C1c1ccccc1,-8%
CCn1c(SCc2nc(CC(=O)Nc3ccccc3OC)no2)nnc1-c1cccs1,-4%
O=C(O)c1ccc2c(c1)CC(c1ccccc1)OC2=O (stereo unspecified),-13%
N#C/C(=N\Nc1ccc(Cl)cc1)C(=N)N1CCCCC1,-23%
Cc1cc2nnc(SCC(=O)NCc3cccs3)n2c2ccccc12,-9%
Cc1ccc2[nH]ccc(=O)c2c1,-15%
CNc1nc2c3ccccc3n(C(C)=O)c2s1,-4%
O=C(COC(=O)C1CCCN1C(=O)c1cccs1)c1ccccc1 (stereo unspecified),-7%
COc1cc(C(=S)N2CCC(C(N)=O)CC2)ccc1O,18µM*
Cn1nc(C(F)(F)F)c(C#N)c1N1CCN(c2ccccc2)CC1,-12%

Next part
compound,HPGD block
O=C(NCCN1CCOCC1)c1cc(Cl)ccc1[N+](=O)[O-],-15%
CCOC(=O)C1=C(C)NC(C)=C(C(=O)OCC)C1c1ccc(O)cc1,-27%
O=C(NCc1ccc2c(c1)OCO2)c1cnc2ccccn2c1=O,-5%
CC1CCc2c(sc(NC(=O)CSc3nc4c(c(C(F)(F)F)n3)CCc3ccccc3-4)c2C(N)=O)C1 (stereo unspecified),-17%
COc1ccc(CNC(=O)c2cnc(C)cn2)c(OC)c1,-6%
C=CCOc1ccc(CNc2nccs2)cc1OCC,-19%
CC1(C)CC(OC(=O)c2ccccc2)CC(C)(C)N1,0%
C/C(=N/NC(=O)CNC(=O)COc1ccccc1)c1ccco1,-9%
COc1ccc(-c2nc(C)ncc2-c2csc(C)n2)c(O)c1,-4%
O=C(c1ccc2c(c1)OCO2)N1CCN=C1SCc1ccccc1,?
O=C(CCN1C(=O)c2ccccc2C1=O)Nc1cccc(F)c1,-3%
CCOC(=O)CSC1=C(C#N)C(c2ccccc2OCC)C(C(=O)OCC)C(=O)N1 (stereo unspecified),-7%
CCNC(=O)COC(=O)c1cc(=O)[nH]c2ccccc12,-25%
CCOC(=O)N1CCC(Nc2cc(C)nc3c(-c4ccccc4OC)c(C)nn23)CC1,-6%
COc1ccc(C2=NN(C(=O)CSc3ncccn3)C(c3ccc(OC)cc3)C2)cc1 (stereo unspecified),-24%
O=S(=O)(NC1c2cccc3cccc(c23)C1N1CCN(CCO)CC1)c1ccccc1 (stereo unspecified),-7%
CCOC(=O)C(C)Sc1nc(-c2cccs2)ccc1C#N (stereo unspecified),?
CCSc1ccccc1C(=O)NCCCn1ccnc1,-8%
Cc1ccccc1Nc1ncccc1C(=O)N1CCOCC1,-11%
Cc1ccc(Oc2ccc(-c3nnc(-c4ccccc4)o3)cc2[N+](=O)[O-])cc1C,-16%
C=C(C)Cn1c(COc2ccccc2)nnc1SCC(=O)O,-3%

Part of the list above, set out differently.
> Cc1cccc(NC(=O)c2ccccc2NC(=O)C(C)(C)C)n1
  HPGD block: -6%

> CCN1C(=O)/C(=C2/SC(C)=C(C)N2CC)SC1=S
  HPGD block: -10%

> O=S(=O)(NC1c2cccc3cccc(c23)C1N1CCN(CCO)CC1)c1ccccc1 (stereo unspecified)
  HPGD block: -7%

> CCN(CC(=O)NC(C)C)C(=O)CCNC(=O)c1ccc(Cl)cc1
  HPGD block: -8%

Screening results: PubChem, National Center for Advancing Translational Sciences (NCATS)

The list is partial (hit frequency here may not be typical).
